Assay outcomes as filed in PubChem.
HPGD block = HPGD (human) dehydrogenase inhibition; P15428; 4.3% of 150,000 active; purified HPGD, NADH fluorescence kinetic, PGE2 substrate; Potency, µM, without a hit: top-dose activity change, negative = inhibition, usual class: inhibitors; AID 894; active = well fitted inhibition curve with a large enough effect (not every such curve was filed as active); inconclusive = small, poorly fitted or top-dose-only effect, or another doubt; inactive = no such curve, though single readings can be large or run the other way;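 further: top concentration of the series not given in the record; plate controls included wells without enzyme; inactives centre near -10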
Target sequence (P15428 whole entry, looked up): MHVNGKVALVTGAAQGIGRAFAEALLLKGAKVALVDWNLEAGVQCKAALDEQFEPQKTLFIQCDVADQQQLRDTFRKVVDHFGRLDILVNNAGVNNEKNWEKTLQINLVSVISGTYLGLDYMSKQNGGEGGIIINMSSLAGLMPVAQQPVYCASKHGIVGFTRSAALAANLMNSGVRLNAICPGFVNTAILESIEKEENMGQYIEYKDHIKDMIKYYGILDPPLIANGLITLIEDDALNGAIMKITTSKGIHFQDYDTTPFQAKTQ
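NADH formation kinetics: reaction with 30 uM PGE2 and 1 mM NAD+ (final), 20 nM enzyme, Tris-HCl pH 8 with Tween 20, after 15 min compound preincubation at room temperature. Fluorescence change, last versus first of five reads.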
* = called active by the depositor; u = inconclusive. On the % scale 0 is the no-effect control and ±100 the full control effect; potency means the concentration at half of the fitted maximal effect.

SMILES	HPGD block
CCCONC(=O)Nc1ccccc1[N+](=O)[O-]	-14%
Cc1cc2c(N=NC(=O)C3CC3c3ccccc3)c(O)[nH]c2cc1Br (stereo not given)	-12%
O=C(CS(=O)(=O)c1cn(Cc2ccc(F)cc2)c2ccccc12)N1CCCCC1	-22%
Cc1ccc(S(=O)(=O)OCC(=O)O)cc1	-1%
Cc1noc(C)c1C(=O)Nc1nnc(-c2ccccc2)s1	-8%
O=C(c1ccc(S(=O)(=O)N2CCOCC2)cc1)N1CCN(c2ccccc2F)CC1	0%
Cn1c(Cc2csc(N)n2)nnc1SCC(=O)NC1CCCCC1	-9%
O=C(NCc1cccnc1)C1CCCN(S(=O)(=O)c2cccc3nsnc23)C1 (stereo not given)	-12%
COc1ccccc1-n1c(-c2cn(C)nc2C)n[nH]c1=S	-26%
Cc1ccnc(SCC(=O)N2CCN(c3ccccc3)CC2)n1	-11%
CCc1ccc(NC(=O)CNC(=O)c2cn(-c3ccccc3OC)c(=O)c3ccccc23)cc1	u
O=C(N/N=C1\CCCc2ccccc21)c1cccc([N+](=O)[O-])c1	-21%
CC[C@H](C)[C@H](NC(N)=O)C(=O)Nc1ccc(C)cc1	-20%
COc1cc(C(O)P(=O)(OCC(C)C)OCC(C)C)cc(OC)c1OC (stereo not given)	5%
O=C(/C=C/c1ccccc1)N1c2ccccc2Sc2ccc(C(F)(F)F)cc21	-19%

As entered above.
Result for O=C(c1ccc(S(=O)(=O)N2CCOCC2)cc1)N1CCN(c2ccccc2F)CC1 in HPGD block: 0%
Result for Cn1c(Cc2csc(N)n2)nnc1SCC(=O)NC1CCCCC1 in HPGD block: -9%

Continued:
SMILES	HPGD block
Cc1ccc(-c2nnc(COc3cccc(-n4cnnn4)c3)o2)cc1	-27%
O=C(Nc1ccc(Cl)cc1C(=O)N1CCOCC1)c1cccc([N+](=O)[O-])c1	0%
COc1ccc2[nH]c3nc(SCC(=O)Nc4ccc5c(c4)OCO5)nnc3c2c1	-29%
CCc1c(C)nc2ncnn2c1Nc1ccc(C#N)c(Cl)c1	-12%
CCOC(=O)C1=C(C)N=C2SC(CC)C(=O)N2C1c1cccc(F)c1 (stereo not given)	-27%
O=C(OCc1ccccc1)C1CCCN1C(=O)c1ccccc1[N+](=O)[O-] (stereo not given)	-10%
OC(COCC1COc2ccccc2O1)CN1CCc2ccccc2C1 (stereo not given)	-6%
COc1cccc(C(=O)OC2CCCN(C)C2)c1 (stereo not given)	-14%
O=C(NCCc1ccccc1)c1nc2ncccn2n1	-6%
COC(=O)c1cccc(NC(=O)CN2CCOCC2)c1	-4%
CN1CCN(c2nc(-c3ccccc3)cc(C(F)(F)F)n2)CC1	-5%
CCOC(=O)Nc1ccc2c(c1)ncn2C1CCCCC1	-14%
COc1ccccc1C1CC(c2ccc(C)cc2)Nc2ncnn21 (stereo not given)	-3%
O=C(/C=C/c1ccc(O)c(O)c1)c1ccc(S(=O)(=O)N2CCCCCC2)cc1	u
Cc1ccc(NC(=O)C2CCCN(S(=O)(=O)c3c(C)noc3/C=C/N(C)C)C2)cc1F (stereo not given)	-12%

Reprinted at random: seven compounds from above.
SMILES	HPGD block
Cc1ccc(NC(=O)C2CCCN(S(=O)(=O)c3c(C)noc3/C=C/N(C)C)C2)cc1F (stereo not given)	-12%
O=C(OCc1ccccc1)C1CCCN1C(=O)c1ccccc1[N+](=O)[O-] (stereo not given)	-10%
O=C(/C=C/c1ccc(O)c(O)c1)c1ccc(S(=O)(=O)N2CCCCCC2)cc1	u
O=C(Nc1ccc(Cl)cc1C(=O)N1CCOCC1)c1cccc([N+](=O)[O-])c1	0%
CN1CCN(c2nc(-c3ccccc3)cc(C(F)(F)F)n2)CC1	-5%
CCOC(=O)C1=C(C)N=C2SC(CC)C(=O)N2C1c1cccc(F)c1 (stereo not given)	-27%
COc1ccc2[nH]c3nc(SCC(=O)Nc4ccc5c(c4)OCO5)nnc3c2c1	-29%

New compounds follow:
SMILES	HPGD block
Cc1ccc(S(=O)(=O)NCc2nnc(SCC(=O)Nc3cccc(C)c3C)n2C)cc1	2%
O=C(NC(=O)c1ccc(Cl)c(Cl)c1)OC1CCS(=O)(=O)C1 (stereo not given)	-17%
COc1ccc(S(=O)(=O)C(C#N)c2nc3ccccc3nc2N2CCC(C)CC2)cc1 (stereo not given)	-16%
COc1ccc(CN2CCCCCC2)c(C)c1C	7%
Cc1cc(/C=N/NC(=O)c2cccc([N+](=O)[O-])c2)c(C)n1-c1ccccc1	-9%
CCOC(=O)c1ccc(NC(=S)NNC(=O)COC)cc1	-20%
COc1cccc(CC(NC(C)=O)C(=O)NC2CCN(c3c(Cc4ccccc4)c(C)nc4ncnn34)CC2)c1OC (stereo not given)	-12%
Cn1cccc1C(=O)N1CCC2(CCCN(c3ccccn3)C2)CC1	-26%
Cc1cc(C)cc(NC(=O)Cn2c(=O)oc3cc(S(=O)(=O)N4CCC(C)CC4)ccc32)c1	-4%
c1ccc(CSc2nnc(-c3ccco3)c(-c3ccco3)n2)cc1	4.5µM*
COc1cc(/C=N/NC(=O)c2ccncc2)ccc1OC(=O)c1ccc([N+](=O)[O-])cc1	-16%
CCS(=O)(=O)NCC(c1cccnc1)N1CCN(c2ccccc2OC)CC1 (stereo not given)	-4%
COc1cc(CNc2ccc(C(=O)O)cc2)cc(Br)c1OCC(=O)NC(C)(C)C	-18%
COc1ccc(C2=NOC(C(=O)NCCCn3ccnc3)C2)cc1 (stereo not given)	-14%
CCC(=O)N1CCN(c2c(Cl)cccc2[N+](=O)[O-])CC1	-10%

Part of the list above, with values ahead of the structure.
HPGD block | compound
4.5µM* | c1ccc(CSc2nnc(-c3ccco3)c(-c3ccco3)n2)cc1
-16% | COc1cc(/C=N/NC(=O)c2ccncc2)ccc1OC(=O)c1ccc([N+](=O)[O-])cc1
-4% | CCS(=O)(=O)NCC(c1cccnc1)N1CCN(c2ccccc2OC)CC1 (stereo not given)
-18% | COc1cc(CNc2ccc(C(=O)O)cc2)cc(Br)c1OCC(=O)NC(C)(C)C
-14% | COc1ccc(C2=NOC(C(=O)NCCCn3ccnc3)C2)cc1 (stereo not given)

Additional compounds follow:
SMILES	HPGD block
O=C(CSc1nnc(-c2cc3ccccc3cc2O)n1Cc1ccco1)N1CCc2ccccc2C1	-21%
FC(F)(F)c1nc(-c2ccncc2)ncc1-c1nnnn1-c1ccccc1	-6%
Cc1ccc(NC(=O)c2ccccc2OCC(=O)c2ccccc2)cc1	0%
COC(=O)CSc1nnc(-c2cccnc2)o1	-9%
O=C1c2ccccc2C(=O)N1CCSc1ncn[nH]1	-11%
O=c1cc(C(F)(F)F)oc2c1ccc1ccccc12	u
COC(=O)c1sc2cnccc2c1N	u
CCCC(c1nnnn1CS(=O)(=O)c1ccc(C)cc1)N1CCN(c2ccccc2)CC1 (stereo not given)	-5%
CC(NC(=O)Cn1cnc2c1c(=O)n(C)c(=O)n2C)c1ccccc1 (stereo not given)	-2%
Cc1c(C(=O)NCc2cccnc2)oc2ccc(S(=O)(=O)N3CCCC(C)C3)cc12 (stereo not given)	-13%
COCCNC(=O)c1onc(CSc2cc(C)ccc2C)c1C(=O)O	-6%
C=CCc1cccc2cc(C(=O)N(CC)CC)c(=O)oc12	u
CCOC(=O)c1cc(CC)sc1NC(=O)C1CC1	-12%
Cc1ccccc1-n1c(=O)[nH]c(=O)c2c(N)c(C(=O)c3ccc(Cl)cc3)sc21	-30%
CCOc1ccc(-c2nnn(CCC(=O)O)n2)cc1OC	-7%
CN(CC(=O)NCCc1ccc(Cl)cc1)S(=O)(=O)c1ccc2c(c1)c(=O)n(C)c(=O)n2C	-12%
Cc1noc(C)c1CSc1nnc2scc(-c3ccc(Cl)cc3)n12	0%
Cc1ccc(NS(=O)(=O)c2ccc(CCC(=O)NCCO)cc2)cc1	-5%
COc1ccc(/C=C\C(=O)CC(O)(c2ccccc2)C(F)(F)F)cc1 (stereo not given)	-25%
CC1CN(c2nc3c(c(=O)[nH]c(=O)n3C)n2Cc2ccccc2F)CC(C)O1 (stereo not given)	-16%
O=C(NCC(=O)N(c1ccccc1F)C(C(=O)NCC1CCCO1)c1ccccc1)c1ccco1 (stereo not given)	4%
COCCCNC(=O)CSc1ccc(Cl)cc1	-18%
Cc1ccc(-c2nc(C#N)c(NCc3cccc4c3OCO4)o2)cc1	u
COc1ccc(C(=O)c2c[nH]c3ccccc23)cc1	-7%
CC(=O)c1cc(OC(=O)N2CCOCC2)ccc1OC(=O)N1CCOCC1	-8%
CC(=O)Nc1ccc(S(=O)(=O)N2CCN(CCC#N)CC2)cc1	0%
Clc1ccc(C2=Nn3c(nnc3-c3n[nH]c4c3CCC4)SC2)cc1Cl	-5%
CC(C)c1cc(Nc2cccc(O)c2)cc(C(C)C)c1O	1%
O=C(Oc1ccccc1Cl)c1ccc(-n2cncn2)nc1	0%
O=C(O)Cn1nc(-c2ccccc2)oc1=O	-16%

With a hit mark in HPGD block, among the entries above:
SMILES	HPGD block
c1ccc(CSc2nnc(-c3ccco3)c(-c3ccco3)n2)cc1	4.5µM*

The results go on:
SMILES	HPGD block
CCCCCCCCCCCCCCCC(=O)OCC(NC(=O)C(Cl)Cl)C(O)c1ccc([N+](=O)[O-])cc1 (stereo not given)	-10%
COCCOC(=O)c1[nH]c2c(c1C)C(=O)CC(c1ccc(F)cc1)C2 (stereo not given)	-6%
O=[N+]([O-])c1ccc(O)c(/C=N/n2cnnc2)c1	-18%
CCCCNC(=O)/C=C1\Sc2ccccc2NC1=O	18µM*
CC(C)Nc1nc(Oc2ccc(Cl)cc2)cc(C(F)(F)F)n1	-15%
CNC(=O)Nc1ccccc1NC(=O)NC	5%
COc1ccccc1NC(=O)C1=C(C)Nc2nc(-c3cccs3)nn2C1c1cccnc1 (stereo not given)	-11%
COCCOc1ccc(C(F)(F)F)cc1NC(=O)COC(=O)c1c(C)noc1C	-3%
CCCC(=O)OCC(=O)Nc1ccc(OC(F)F)cc1	-9%
CC1C/C(=N/N=C2/NC(=O)CS2)CC(C)(C)C1 (stereo not given)	-2%
Cc1cccc(N2CCN(Cc3oc(CO)cc(=O)c3O)CC2)c1C	-5%
CC12CCC(=O)N1C(C(=O)OCC(=O)Nc1cccc(S(=O)(=O)N3CCCCCC3)c1)CS2 (stereo not given)	-2%
COCCn1c(SCC(=O)Nc2sc(C)c(C)c2C#N)nnc1-c1ccc(OC)cc1	-2%
COc1ccc(N(CC(O)CN2C(=O)NC(C)(C)C2=O)S(=O)(=O)c2ccc(C)cc2)cc1 (stereo not given)	-7%
CCCCS/C(N)=N/N=C/c1ccccc1O	-17%
COc1cccc(OC)c1OCC(O)CN1CCN(c2ccccc2)CC1 (stereo not given)	-3%
CCC(C)NS(=O)(=O)c1ccc(OCC(=O)N2CCC(C)CC2)cc1 (stereo not given)	-4%
COc1ccccc1-c1nc(C(N)=O)c2[nH]c(=O)n(-c3cccc(C)c3)c2n1	u
COc1cc(CSc2ncn[nH]2)c(OC)cc1CSc1ncn[nH]1	-5%
N#Cc1nc(COc2cccc(Cl)c2)oc1NCc1ccncc1	-21%
Cc1occc1-c1nnc(SCC(=O)c2ccc(Cl)cc2)n1C	-16%
O=C(COc1ccccc1)N/N=C/c1cc2c(cc1[N+](=O)[O-])OCO2	-15%
CCOc1ccc(NC(C)C(=O)N/N=C/c2cccs2)cc1 (stereo not given)	-6%
COc1ccc(OC)c(NC(=O)CCN2CCCC(C)C2)c1 (stereo not given)	2%
O=C(CSc1nnnn1-c1ccccc1)Nc1nsc(-c2ccc(Cl)cc2)n1	u
Cc1ccc(NC(=S)NC(=O)c2ccc(F)cc2)cc1S(=O)(=O)Nc1ccccc1Cl	-10%
N=c1oc2ccccc2cc1-c1nc(-c2ccc(Cl)cc2)cs1	-27%
CCOC(=O)C1CCN(C(=O)c2cc(S(=O)(=O)N3CCOCC3)c(Cl)cc2Cl)CC1	-10%
Cc1c(NC(=O)CSc2ccc(Cl)cc2)cccc1-c1nc2cc(Cl)ccc2o1	-12%
CC1Cc2ccccc2N1C(=O)CSc1nnnn1C(C)C (stereo not given)	-6%
COc1ccccc1NS(=O)(=O)c1cc(NC(=S)Nc2cc(C)cc(C)c2)ccc1Cl	-19%
CCn1c(CCNC(=O)c2cccs2)n[nH]c1=S	-7%
O=C(CN(Cc1ccccc1)C1=NCCS1)c1ccc(Cl)cc1	-6%
O=S(=O)(c1ccc2ccccc2c1)N1CCN(C(=S)Nc2ccc(F)c(Cl)c2)CC1	-11%
Cc1cccc(NC(=O)CSc2nnc(NC(=O)CN3CCCCC3)s2)c1	-11%
Cc1cccc(NC(=O)c2ccc(N(C)C3CCCCC3)c([N+](=O)[O-])c2)n1	-11%
CC(C)(C)C1CCC(=NNc2ccc(S(N)(=O)=O)cc2[N+](=O)[O-])CC1 (stereo not given)	-18%
Cc1nc2oc3c(NCC4CCCO4)ncnc3c2c2c1COC(C)(C)C2 (stereo not given)	u
Cn1cccc1/C=C1\SC(=S)N(NC(=O)c2ccc(Cl)cc2)C1=O	-9%
Cn1cc(CNC(=O)c2sc3cccc(Cl)c3c2Cl)cn1	-17%
O=C(CCn1c(=O)oc2ccccc21)N1CCN(c2ccccc2F)CC1	-7%
O=C1c2ccccc2C(=O)N1CC1CCCO1 (stereo not given)	-4%
CCCCNc1cc(C(=O)O)cc(S(N)(=O)=O)c1Oc1ccccc1	u
Cc1cc(-c2ccco2)n(CC(=O)NCCN(C)C)n1	-12%
CC1CCCCN1CCCNC(=O)c1ccc2c(=O)n(CCc3ccccc3)c(=O)[nH]c2c1 (stereo not given)	-9%
O=C(CCC1CCCCC1)Nc1c[nH]c(=O)[nH]c1=O	-8%
N#CC1=C(N)Oc2cc3c(cc2C1c1ccc(Cl)cc1)OCO3 (stereo not given)	-3%
CC(C)c1ccccc1S(=O)(=O)c1cc(N)c2ncccc2c1[N+](=O)[O-]	-17%

Not all compounds are listed; count on the stated rates, not on these rows.
